VDR inhibitor: vitamin D3 receptor (human) inhibition; actives 0.93% (n = 400,000); P11473; Potency, µM, inactives show max response, negative = inhibition, usual class: inhibitors; VDR-SRC2-3 peptide fluorescence polarization, 2 h; active = well fitted inhibition curve with a large enough effect; inconclusive = small, poorly fitted or top-dose-only effect, or another doubt; inactive = no such curve, though single readings can be large or run the other way; also: series mostly up to about 120 µM
Target sequence (P11473 whole entry, looked up): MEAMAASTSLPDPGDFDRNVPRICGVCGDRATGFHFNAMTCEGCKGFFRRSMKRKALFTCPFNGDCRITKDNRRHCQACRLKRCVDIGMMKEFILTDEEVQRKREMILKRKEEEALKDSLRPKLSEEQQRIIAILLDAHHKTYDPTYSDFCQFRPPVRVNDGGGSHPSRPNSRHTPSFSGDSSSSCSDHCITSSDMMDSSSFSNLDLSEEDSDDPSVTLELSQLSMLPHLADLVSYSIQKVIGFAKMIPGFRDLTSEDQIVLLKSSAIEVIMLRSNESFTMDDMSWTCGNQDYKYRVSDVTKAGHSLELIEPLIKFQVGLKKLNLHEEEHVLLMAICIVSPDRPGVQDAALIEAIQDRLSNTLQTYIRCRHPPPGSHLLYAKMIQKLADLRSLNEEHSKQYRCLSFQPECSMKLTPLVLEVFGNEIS
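Two reagent solutions held at 4 deg C in the dark were dispensed, compounds pinned at 23 nl, and the mixture incubated 2 h at room temperature. Read-out: fluorescence polarization of VDR–SRC2-3 peptide binding.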
Starred values were filed as active, the others as inactive; ? = inconclusive; & = joins results of further samples; [ ] = another dose, or the depositor's remark. % is scaled to controls: 0 for no effect and ±100 for the full control effect; potency is read from the fitted curve at half-maximal effect.

SMILES	VDR inhibitor
CCOc1ccccc1NC(=O)CSc1nnc(CNC(=O)c2cccs2)o1	-8%
COC(=O)c1sc(C(F)(F)F)c(-c2ccccc2)c1S(=O)(=O)N1CCCC1	4%
Cc1ccc(NC(=O)CN2C(=O)S/C(=C\C(=O)Nc3ccc(Cl)cc3)C2=O)cc1	-2%
Cc1ccc(OCCN(C)C)c([N+](=O)[O-])c1	10%
Cc1cc(NC(=O)CSc2nnc(-c3ccco3)n2CC2CCCO2)no1 (stereo not given)	9%
O=C(CC1C(=O)NCCN1Cc1ccc(-c2ccccc2)cc1)NCc1ccncc1 (stereo not given)	16%
Cn1c(N2CCOCC2)nc(-c2ccccc2)c1-c1ccccc1	11%
Cc1cccc(N2CCN(C(=O)CCc3c(C)nc4ncnn4c3C)CC2)c1C	6%
C/C(=N/NC(=O)CNC(=O)c1ccco1)c1ccco1	-14%
Cc1ccc(Cl)cc1NC(=S)N(Cc1ccccc1)Cc1cccnc1	?
CC1(C)Cc2cccc(C(=O)Nc3ccc(Cl)cc3)c2O1	-8%
CN(C(=O)c1sc2nc(N3CCCC3)c3c(c2c1N)CC(C)(C)OC3)c1ccccc1	?
O=C(CSc1nc2nccnc2c(=O)n1Cc1cccs1)Nc1ccccc1F	-9%
Cc1oc2ccc(O)c(CN3CCCC3)c2c1C(=O)Nc1ccccc1	0%
O=C(Cn1nc(Cl)nc1Cl)c1ccc2c(c1)OCCO2	1%
Cc1ccc(CSCCNC(=O)CCSc2ccccc2)cc1	3%
N#CC(C#N)=C/C=C(\Nc1ccc(Cl)cc1)c1ccc(Cl)cc1	-14%
O=C(Nc1cccc(-c2cn3ccccc3n2)c1)c1cccs1	13%
Cc1cc(OCC(O)CN2CCN(C)CC2)ccc1C(C)C (stereo not given)	9%&6%
O=S(=O)(/N=C(/NNS(=O)(=O)c1ccccc1)c1ccccc1)c1ccccc1	-18%
O=C(O)CN1C(=O)C(=O)N(Cc2ccc(C(F)(F)F)cc2)C1=O	-11%
CCOc1ccc(/C=C/C(O)=C2/C(=O)N(C)C3(C)CC2c2ccccc2O3)cc1OC (stereo not given)	-14%
CCc1ccccc1NC(=O)c1sc2nc(C)cc(C)c2c1N	?
CC(=O)Oc1ccc(C(=O)Nc2cccc(C(=O)c3cccc(NC(=O)c4ccc(OC(C)=O)cc4)c3)c2)cc1	15%
CCC1=NN(C(=O)c2ccc(C)cc2)C(O)(c2ccc(Br)cc2)C1 (stereo not given)	-8%

5 entries out of the list above, sorted by their value in VDR inhibitor, high to low:
SMILES	VDR inhibitor
Cc1ccc(OCCN(C)C)c([N+](=O)[O-])c1	10%
Cc1ccc(CSCCNC(=O)CCSc2ccccc2)cc1	3%
Cc1ccc(NC(=O)CN2C(=O)S/C(=C\C(=O)Nc3ccc(Cl)cc3)C2=O)cc1	-2%
CCOc1ccccc1NC(=O)CSc1nnc(CNC(=O)c2cccs2)o1	-8%
C/C(=N/NC(=O)CNC(=O)c1ccco1)c1ccco1	-14%

Back to the main list, starting 7 compounds before the break.
SMILES	VDR inhibitor
Cc1cc(OCC(O)CN2CCN(C)CC2)ccc1C(C)C (stereo not given)	9%&6%
O=S(=O)(/N=C(/NNS(=O)(=O)c1ccccc1)c1ccccc1)c1ccccc1	-18%
O=C(O)CN1C(=O)C(=O)N(Cc2ccc(C(F)(F)F)cc2)C1=O	-11%
CCOc1ccc(/C=C/C(O)=C2/C(=O)N(C)C3(C)CC2c2ccccc2O3)cc1OC (stereo not given)	-14%
CCc1ccccc1NC(=O)c1sc2nc(C)cc(C)c2c1N	?
CC(=O)Oc1ccc(C(=O)Nc2cccc(C(=O)c3cccc(NC(=O)c4ccc(OC(C)=O)cc4)c3)c2)cc1	15%
CCC1=NN(C(=O)c2ccc(C)cc2)C(O)(c2ccc(Br)cc2)C1 (stereo not given)	-8%
CC(C)[C@H](NC(N)=O)C(=O)Nc1cccc(S(=O)(=O)NC2=NCCCCC2)c1	-4%
CCOC(=O)N1CCN(C(=O)CSCC(=O)Nc2nc(-c3ccc(-c4ccccc4)cc3)cs2)CC1	11%
Cc1ccccc1CNS(=O)(=O)c1ccc2c(c1)OCCO2	0%
S=C(NCc1ccncc1)Nc1ccc(Br)cc1	-22%
Cc1ccc(NC(=O)Cc2noc3ccccc23)cc1	-13%
CC(C)c1ccc(NC(=O)CN2C(=O)NC(Cc3c[nH]c4ccccc34)C2=O)cc1 (stereo not given)	6%
COC(=O)c1sccc1NC(=O)CSc1cccc(Cl)c1Cl	-17%
COC(=O)c1ccccc1NC(=O)Cn1cnc2c(cnn2-c2ccccc2)c1=O	-6%
COc1ccc(C2=CC(=O)C[C@H](c3ccc(OC)c(OC)c3)C2)cc1	-1%
CCCN1C(=O)c2cc(C(=O)Nc3ccccc3CC)ccc2C1O (stereo not given)	-5%
CCN(C[C@H]1N[C@@](Cc2ccccc2)(C(=O)OC)[C@H]2C(=O)N(Cc3ccccc3)C(=O)[C@@H]12)C(=O)Nc1ccc(F)cc1	5%
CCOC(=O)c1c(NC(=O)COc2cccc(C)c2C)sc2c1CCC(CC)C2 (stereo not given)	-6%
COc1ccccc1OCCn1cc(/C=C(\C#N)C(=O)NCc2cccs2)c2ccccc21	-10%
N#CCCn1cc(/C=N/NC(N)=S)c(-c2ccc(Br)cc2)n1	-7%
Cc1onc(-c2ccccc2)c1C(=O)OCC(=O)N(C)c1ccccc1	-12%
Cc1csc(NC(=O)Cc2ccccc2Cl)n1	13%
COCc1nnc(NC(=O)c2ccc(Cl)cc2[N+](=O)[O-])s1	-9%
Cc1ccc(-c2nc(C3CCN(S(=O)(=O)c4ccc(C(F)(F)F)cc4)CC3)no2)cc1	23%
COc1ccccc1C=NNC(=O)c1ccccc1OCCOc1ccccc1	-1%
CCN1C(=O)S/C(=C/c2ccsc2)C1=O	1%
CC(C)[C@H](NC(=O)OCc1ccccc1)C(=O)OCC(=O)NCc1ccco1	4%
CSc1ccccc1-c1nnc(NC(=O)c2ccc3c(c2)OCCO3)o1	10%
CCOC(=O)c1cc(C#N)c(=S)[nH]c1C	-21%
CCOC(=O)CNc1ccc2c(c1)OCO2	-6%
CC(C)(C)OC(=O)N1CCC(CC2CC(c3ccccc3)=NO2)(C(=O)NCc2ccccc2)CC1 (stereo not given)	-1%

Ordered by formula weight (highest first): four of the compounds above.
SMILES	VDR inhibitor
CCN(C[C@H]1N[C@@](Cc2ccccc2)(C(=O)OC)[C@H]2C(=O)N(Cc3ccccc3)C(=O)[C@@H]12)C(=O)Nc1ccc(F)cc1	5%
COc1ccccc1OCCn1cc(/C=C(\C#N)C(=O)NCc2cccs2)c2ccccc21	-10%
Cc1ccccc1CNS(=O)(=O)c1ccc2c(c1)OCCO2	0%
Cc1ccc(NC(=O)Cc2noc3ccccc23)cc1	-13%

Further compounds
SMILES	VDR inhibitor
COc1cccc(N2CCN(C(=O)c3cccc(NC4=NC5CS(=O)(=O)CC5S4)c3)CC2)c1 (stereo not given)	-4%
CC1(C)CC(=O)C/C(=N\NC(=O)C2C3CCCCC32)C1 (stereo not given)	-19%
Cc1cccc2c1NC(C)CC2C (stereo not given)	49%[activator]
COc1ccc(C2CC(c3cccs3)=NN2C(=O)CSc2nc3c(cnn3-c3ccccc3)c(=O)[nH]2)cc1 (stereo not given)	-8%
CCn1ncc(C(=O)Nc2ccc(F)cc2)c1C	-11%
CCOc1cc(C(=S)N2CCCCC2)ccc1OS(=O)(=O)c1ccc(Cl)cc1	-5%
O=C(Cn1cnc2ccccc21)c1ccc(Br)cc1	3%
COC(=O)c1ccccc1NC(=O)Cn1c(-c2nonc2N)nc2ccccc21	-6%
FC(F)(F)c1cccc(NC(=S)NCC2COc3ccccc3O2)c1 (stereo not given)	4%
CC(=O)N1CCc2cc(Br)cc(S(=O)(=O)N3CCN(c4cc(C)ccc4C)CC3)c21	-21%
CS(=O)(=O)NCC(c1ccco1)N1CCN(c2ccc(F)cc2)CC1 (stereo not given)	3%&3%
COc1cc(SC)ccc1C(=O)Nc1ccc2c(c1)OCO2	12%
O=C(c1ccc(Cl)cc1)n1nc(-c2ccco2)nc1NCc1cccs1	10%
Cc1cc(C)cc(N(C(=O)c2csnn2)C(C(=O)NC2CCCC2)c2ccccn2)c1 (stereo not given)	-5%
O=[N+]([O-])c1ccccc1Oc1ccc(S(=O)(=O)N2CCOCC2)cc1	-26%
CC(C=NNc1ccc([N+](=O)[O-])cn1)=Cc1ccccc1	-20%
COc1ccc(N2CCN(C(=O)C3CCCN(S(=O)(=O)c4ccc(F)cc4)C3)CC2)cc1 (stereo not given)	-24%
Cc1cc(C)n(-c2nnc(Nc3ccc(C)c(Cl)c3)c3ccccc23)n1	8%
CC(C)c1ccc(N2C=Nc3ccc(C(C)C)cc3C2)cc1	?
COc1ccc(-c2noc(CCC(=O)NC3CCCCC3)n2)cc1	7%
O=C(CCC(=O)OCc1ccc([N+](=O)[O-])cc1)Nc1ccc(F)cc1	2%
Cc1cn2c(=O)cc(COc3ccccc3NC(=O)c3ccco3)nc2s1	-14%
COc1ccc(/C=C/C(=O)Nc2ccccc2F)cc1S(=O)(=O)N1CCOCC1	-22%
CCC(=O)N=c1ccn(C2=Nc3ccccc3NC2=C(C#N)C#N)cc1	6%
Cc1noc(C)c1COc1ccccc1C(=O)N1CCN(S(=O)(=O)c2cccc([N+](=O)[O-])c2)CC1	0%
The list continues:
SMILES	VDR inhibitor
O=C(NC1CCCCCC1)C1CCCN(c2ncccn2)C1 (stereo not given)	-1%
O=C(Nc1cccs1)NC1CCCC1	10%
Cc1ccc2nc(Nc3ccc(C)c(C)c3)c3nncn3c2c1	23%
OC(CNCCCCNCC(O)C(F)(F)F)C(F)(F)F (stereo not given)	-5%
COc1ccc(OC)c(NC(=O)CSc2nc(=O)n(CCN(C)C)c3c2CCC3)c1	12%
CCOCCCNC(=S)N1CCC(NC(=O)C23CC4CC(CC(C4)C2)C3)CC1	1%
COc1cccc(OC)c1C(=O)N1CCN(S(=O)(=O)c2ccc(C)cc2)CC1	1%
Cc1ccccc1NC(=O)Cn1cnc2c(oc3ccccc32)c1=O	12%
CC(NC(=O)Cc1c(F)cccc1Cl)C1CCCO1 (stereo not given)	-7%
Cc1ccsc1C(=O)NNC(=S)NC1CCCCC1	85%[activator]
c1ccc(CCc2nn3c(C4COc5ccccc5O4)nnc3s2)cc1 (stereo not given)	-77%
CN1CCc2c(n(CC(O)CN(CCO)CCO)c3ccccc23)C1=O (stereo not given)	-9%
Cc1ccc(-c2nc(C#N)c(NCCc3ccccn3)o2)cc1	3%
COc1ccccc1OCC#CCn1ccnc1	1%
COc1cc(NC(=O)COCc2cc(-c3ccc(F)cc3)on2)cc(OC)c1OC	4%
COc1cccc(-c2cc(=O)c3cc(NC(=O)c4cccnc4)ccc3[nH]2)c1	4%
COc1ccc(CN2C(=O)COc3ccccc32)cc1	-1%
Brc1ccc(C2=CC(c3cccs3)n3ncnc3N2)cc1 (stereo not given)	-22%
O=C(Nc1cccc(C(F)(F)F)c1)c1noc2c1CCc1ccccc1-2	-1%
CN1CCCCCC1C(=O)N1CCC(N2CCC(C(=O)N3CCOCC3)CC2)CC1 (stereo not given)	0%
CC(C)n1c(NCc2nc3ccccc3n2C)nc2ccccc21	-14%
Cn1c(SCC(=O)N2CCCc3ccccc32)nnc1-c1ccco1	-21%
NS(=O)(=O)c1ccc(CCNC(=O)CNC(=O)C2CCCCC2)cc1	12%
CC(C)C[C@H]1CNC(=S)N1CC1CCN(CCC2CCCC2)CC1	-5%
COc1ccc([C@@H]2[C@@H](C(=O)C(C)(C)C)N3N=Cc4ccccc4[C@@H]3C23C(=O)OC(C)(C)OC3=O)cc1OC	?
Additional structures:
SMILES	VDR inhibitor
CCCC(C)NC(=O)CN(Cc1ccco1)S(=O)(=O)c1ccccc1 (stereo not given)	-12%
COCCCn1c(SCc2nnc(-c3ccc(OC)c(OC)c3)o2)nnc1-c1ccncc1	15%
COc1ccc(/C(C)=N/NC(=O)CCC(=O)Nc2ccc(Cl)cc2Cl)c(OC)c1	-20%
O=C(c1ccc(Cl)c(S(=O)(=O)N2CCOCC2)c1)N1CCN(c2ccccc2)CC1	-5%
C=CCSc1nnc(NC(=O)CSc2nc3ccccc3[nH]2)s1	-2%
Cc1cccc(-c2noc(-c3ccc(NCc4ccccc4)c([N+](=O)[O-])c3)n2)c1	14%
COCCn1cnc2c1c(=O)n(CC(=O)OCC#N)c(=O)n2Cc1ccccc1	-5%
O=C(/C=C/c1ccco1)NCCCN1CCN(CCCNC(=O)/C=C/c2ccco2)CC1	-16%
C=CCNC(=O)COC(=O)c1cc(S(=O)(=O)N2CCCCC2)ccc1Cl	1%
CC(=O)Nc1ccc(Nc2ncnc3sc4c(c23)CCCC4)cc1	-2%
Cc1cc(=O)[nH]c2ccc(S(=O)(=O)N3CCOCC3)cc12	-5%
CCOc1ccc(NS(=O)(=O)c2ccc(NC(=O)c3ccccn3)cc2)cc1	5%
[O-]/C(=C(\C(=S)Nc1cccc2ccccc12)[n+]1cccc(CO)c1)c1ccc(Cl)s1	-19%
CN1CCN(c2ccc([N+](=O)[O-])c(Sc3nc4ccccc4[nH]3)c2)CC1	7%
COc1ccc(-c2cc(C(F)(F)F)nc(SCCC(=O)Nc3cccc(O)c3)n2)cc1	-20%
CCOc1cccc(/C=N/NC(=O)CC2C(=O)NN=C2C)c1O (stereo not given)	7%
CCCC1(c2ccccc2)NC(=O)N(CCN2C(=O)c3ccccc3C2=O)C1=O (stereo not given)	-10%
Cc1cccn2c(=O)c3cc(C(=O)N4COCC4(C)C)sc3nc12	-7%
Cc1ccnc2nc(C(=O)OCC(=O)N3CCc4ccccc43)nn12	11%
Cc1ccc(NC(=O)N2CCCC2C(=O)NCC2CCCO2)cc1 (stereo not given)	2%
CCCCn1c(SCC(=O)NCc2ccco2)nc2c1c(=O)n(C)c(=O)n2C	5%
COc1ccc(CC(C)CC(=O)NCCc2ccc(OC)c(OC)c2)cc1 (stereo not given)	?
Cc1ccc(C(=O)NN2C(=O)C3C4c5ccccc5C(c5ccccc54)C3C2=O)cc1 (stereo not given)	10%
COc1ccc(NC(=O)c2ccco2)cc1NC(=O)COc1ccc(C)cc1C	?
CON(C)c1nc(OCC#N)nc(N(C)C)n1	2%
Cc1cccc(Cn2c(C)c(C)c3cc(C(=O)NCc4ccco4)ccc32)c1	13%

Some of the compounds tested (hit frequency here may not be typical).
